VDR inhibitor: Inhibitors of the vitamin D receptor (VDR): qHTS; Vitamin D3 receptor (Homo sapiens), P11473; VDR-SRC2-3 peptide fluorescence polarization, 2 h; Potency, µM, for inactives: max response, negative = inhibition, usual class: inhibitors; 400,000 compounds, 0.93% hits; active means well fitted inhibition curve with a large enough effect; inconclusive means small, poorly fitted or top-dose-only effect, or another doubt; inactive means no such curve, though single readings can be large or run the other way; further: series mostly up to about 120 µM
Target sequence (P11473 whole entry, looked up): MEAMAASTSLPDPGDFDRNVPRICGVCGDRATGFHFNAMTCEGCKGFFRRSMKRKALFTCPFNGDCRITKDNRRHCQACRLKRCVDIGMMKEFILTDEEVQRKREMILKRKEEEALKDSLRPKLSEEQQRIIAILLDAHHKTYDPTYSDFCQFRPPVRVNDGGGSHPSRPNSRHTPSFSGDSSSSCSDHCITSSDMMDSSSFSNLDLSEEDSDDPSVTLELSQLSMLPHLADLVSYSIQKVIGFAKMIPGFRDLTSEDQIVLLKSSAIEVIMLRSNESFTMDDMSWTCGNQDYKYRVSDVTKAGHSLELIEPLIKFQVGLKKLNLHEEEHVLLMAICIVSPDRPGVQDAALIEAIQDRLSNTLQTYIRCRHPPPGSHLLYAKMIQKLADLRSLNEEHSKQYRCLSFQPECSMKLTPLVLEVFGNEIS
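VDR–SRC2-3 interaction, FP format. Cmpds 23 nl via pintool, brief spin, 2 h ambient incubation.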
The depositor's hits bear a star; ? = inconclusive; & = joins results of further samples. On the % scale 0 is the no-effect control and ±100 the full control effect; potency means the concentration at half of the fitted maximal effect. Some of the compounds tested (hit frequency here may not be typical).

SMILES	VDR inhibitor
CCCCc1ncc(CN2CCC(CC3CCCCO3)(C(=O)OCC)CC2)[nH]1 (centres undefined)	-10%
O=C(N/N=C/c1ccc(OC(=O)c2cccc(F)c2)cc1)c1cccnc1	-2%
C[C@H](CO)N1C[C@H](C)[C@@H](CN(C)Cc2ccccc2)Oc2c(NC(=O)Cc3ccccc3)cccc2C1=O	2%
C(=N\Nc1nc2ccccc2s1)/c1ccco1	-9%
O=C(NC(C(=O)c1ccccc1)n1c(=O)cc[nH]c1=S)c1ccccc1 (centres undefined)	17%
Cc1ccccc1-n1ncc2c(SCC(=O)NC3CCCC3)ncnc21	-7%
O=C(Nc1cnn(Cc2ccc(Cl)cc2)c1)c1cccs1	?
CCOC(=O)c1ccc2c(c1)N(Cc1ccc(F)cc1Cl)C(=O)c1ccccc1S2	2%
Cc1cccc(NC(=S)NCc2cccs2)c1C	-13%
CCOC(=O)c1oc2cc(C)cc(C)c2c1C	-19%
O=C(CCS(=O)(=O)c1ccccc1)Nc1ccc(S(=O)(=O)Nc2nccs2)cc1	-1%
CC(=O)c1cc(F)c(N2CCN(c3ccc([N+](=O)[O-])cc3F)CC2)cc1C	12%
COc1ccc(C(=O)NCCSCc2ccco2)cc1OC	12%
COCCNC(=O)c1c(N)n(CCC2=CCCCC2)c2nc3ccccc3nc12	?
CC(=O)c1ccc(OCCCC(=O)N2CCN(S(=O)(=O)c3cccs3)CC2)cc1	8%
Cc1ccc(CN2CCN(C3CCN(C(=O)Nc4ccccc4C(F)(F)F)CC3)C(=O)C2=O)cc1	14%
COC(=O)C1=C(O)C2(C(=O)O)CC(C(=O)OC)=C(O)C(C(=O)O)(C1)C2	5%
O=C(OCC(=O)N1CCOCC1)c1cc(=O)[nH]c2ccccc12	-9%
O=C1c2ccccc2S(=O)(=O)N1Cc1nnc(-c2ccccc2Br)o1	-13%
CCC(C)NC(=O)c1cn(CC)c2cc(N3CCN(C)CC3)c(F)cc2c1=O (centres undefined)	3%
COc1ccccc1N1CCN(c2cc(=O)n(-c3ccc(Br)cc3)c(=O)[nH]2)CC1	-8%
COc1ccc(N2CCN(C(=O)c3cc4c(=O)n(Cc5ccccc5)ccc4nc3C)CC2)cc1	-5%&8%
CN(C)C(=O)c1nc(C#N)c(N(C)C)o1	2%
Cc1c(CC(=O)O)c(=O)oc2cc3occ(-c4ccc(F)cc4)c3cc12	2%
O=c1c(S(=O)(=O)c2ccccc2)cn(Cc2cccc(F)c2)c2cc(N3CCCC3)c(F)cc12	9%
O=C(CCC1CCN(Cc2ccc(Cl)cc2)CC1)NC1CC1	-16%
NS(=O)(=O)Nc1ccccc1Br	-8%
CS(=O)(=O)N(CC(=O)N1CCOCC1)Cc1ccccc1	-7%
CN(C(=O)CC1C(=O)NCCN1Cc1cccc(C(F)(F)F)c1)C1CCOCC1 (centres undefined)	9%
CC(C)CCNC(=O)Nc1ccc2c(c1)N(Cc1ccccc1)C(=O)c1ccccc1S2	-2%
O=C(NC1CCCCC1)N1CCC(n2cnc3ccccc32)CC1	-8%
COCCNC(=O)c1cccc(-n2c(C)nc3cccnc32)c1	1%
O=C1CC2(CCN(C(=O)c3ccc(F)c(F)c3)CC2)Oc2ccccc21	-12%
Fc1ccc(CNC(=S)Nc2ccc(Cl)cc2)cc1	-6%
Cc1ccccc1-c1cc(C(=O)NCc2ccc3c(c2)OCO3)n(CC2CC(c3cccnc3)=NO2)n1 (centres undefined)	-4%
Cc1cccc(NC(=O)CN2CCC(C(=O)c3ccc4c(c3)OCCO4)CC2)c1	4%
CCOC(=O)c1c(S(=O)(=O)N2CCCC(C(=O)Nc3ccc(C)cc3C)C2)c(C)n(CC)c1C (centres undefined)	17%
CC(C)(C)N1C(=O)Cc2c1nc(N)c1c(N)nc(N3CCCCC3CO)c(C#N)c21 (centres undefined)	?
CCCCOc1cccc(-c2nnc(NC(=O)CSc3ccc(C)cc3)s2)c1	-21%
CCc1cc(=O)oc2cc(C)cc(OCC(=O)NC(Cc3ccc(Cl)cc3)C(=O)O)c12 (centres undefined)	-11%
CC(=O)c1ccc(Nc2ccc(-c3ccccc3C)nn2)cc1	0%
Cc1cccc(NC(=O)COC(=O)c2nn(C)c(=O)c3ccccc23)c1C	0%
Cn1ncc(C(=O)N2CCN(c3ccccc3F)CC2)c1C1CCN(C(=O)OC(C)(C)C)CC1	13%
O=C(CSc1ncn[nH]1)Nc1ccc(Cl)c(S(=O)(=O)N2CCOCC2)c1	-3%
CCc1ccc(OCC(=O)NC(=S)Nc2ccc(Br)c(C)n2)cc1	-2%

Entries listed so far with a halogen, in the order listed:
SMILES	VDR inhibitor
O=C(N/N=C/c1ccc(OC(=O)c2cccc(F)c2)cc1)c1cccnc1	-2%
O=C(Nc1cnn(Cc2ccc(Cl)cc2)c1)c1cccs1	?
CCOC(=O)c1ccc2c(c1)N(Cc1ccc(F)cc1Cl)C(=O)c1ccccc1S2	2%
CC(=O)c1cc(F)c(N2CCN(c3ccc([N+](=O)[O-])cc3F)CC2)cc1C	12%
Cc1ccc(CN2CCN(C3CCN(C(=O)Nc4ccccc4C(F)(F)F)CC3)C(=O)C2=O)cc1	14%
O=C1c2ccccc2S(=O)(=O)N1Cc1nnc(-c2ccccc2Br)o1	-13%
CCC(C)NC(=O)c1cn(CC)c2cc(N3CCN(C)CC3)c(F)cc2c1=O (centres undefined)	3%
COc1ccccc1N1CCN(c2cc(=O)n(-c3ccc(Br)cc3)c(=O)[nH]2)CC1	-8%
Cc1c(CC(=O)O)c(=O)oc2cc3occ(-c4ccc(F)cc4)c3cc12	2%
O=c1c(S(=O)(=O)c2ccccc2)cn(Cc2cccc(F)c2)c2cc(N3CCCC3)c(F)cc12	9%
O=C(CCC1CCN(Cc2ccc(Cl)cc2)CC1)NC1CC1	-16%
NS(=O)(=O)Nc1ccccc1Br	-8%
CN(C(=O)CC1C(=O)NCCN1Cc1cccc(C(F)(F)F)c1)C1CCOCC1 (centres undefined)	9%
O=C1CC2(CCN(C(=O)c3ccc(F)c(F)c3)CC2)Oc2ccccc21	-12%
Fc1ccc(CNC(=S)Nc2ccc(Cl)cc2)cc1	-6%
CCc1cc(=O)oc2cc(C)cc(OCC(=O)NC(Cc3ccc(Cl)cc3)C(=O)O)c12 (centres undefined)	-11%
Cn1ncc(C(=O)N2CCN(c3ccccc3F)CC2)c1C1CCN(C(=O)OC(C)(C)C)CC1	13%
O=C(CSc1ncn[nH]1)Nc1ccc(Cl)c(S(=O)(=O)N2CCOCC2)c1	-3%
CCc1ccc(OCC(=O)NC(=S)Nc2ccc(Br)c(C)n2)cc1	-2%

New compounds follow:
SMILES	VDR inhibitor
C=CCNC(=O)c1cc(C(=O)C(C)c2ncc(C(F)(F)F)cc2Cl)c[nH]1 (centres undefined)	10%
CCN(CC(=O)Nc1ccc2c(c1)OCCO2)C(=O)c1ccccc1Br	-3%
Cc1nc(C)c(CCNS(=O)(=O)c2ccc(C)c(C)c2)s1	7%
COc1ccc(NC(=O)c2csnn2)cc1Cl	7%
O=C(CN1CCN(S(=O)(=O)c2ccc(Cl)cc2)CC1)NC1CC1	-3%
COc1ccc(NC(=O)c2oc3ccccc3c2NC(=O)C23CC4CC(CC(C4)C2)C3)c(OC)c1	9%
Cc1csc(NC(=O)[C@@H](NC(=O)c2ccccc2)C(C)C)n1	18%
CCOc1ccc2[nH]c(=O)c(CN(CC3COCCO3)C(=O)c3ccco3)cc2c1 (centres undefined)	8%
CCOc1ccc(NC(=O)c2sc3nc4c(cc3c2N)CN(Cc2ccccc2)CC4)cc1	-2%
COc1ccc(C2=C(C)C(N3CCC(C(=O)Nc4ccc(F)cc4C)CC3)=NS2(=O)=O)cc1	8%
Cc1ccc(NC(=O)c2nc[nH]c2C(=O)NCCN(CCNC(=O)c2[nH]cnc2C(=O)Nc2ccc(C)cc2)CCNC(=O)c2[nH]cnc2C(=O)Nc2ccc(C)cc2)cc1	?
C/C(=C\C(=O)c1ccc(Br)cc1)N1CCCCC1	-1%
O=C(Cn1cc(S(=O)(=O)Cc2cccc(Cl)c2)c2ccccc21)NCCc1ccccc1	0%
COc1ccc(Oc2nc3c(C)cccn3c(=O)c2/C=C(\C#N)c2nc3ccccc3[nH]2)cc1	-10%
O=C(NNC(=O)c1cc(Cl)ccc1O)c1cccs1	-3%
COC(=O)c1ccc(-c2noc(CN(C)CCC3CCCCO3)n2)cc1 (centres undefined)	1%
CC(C)N(Cc1cc2ccccc2[nH]c1=O)C(=O)C(C)(C)C	-3%
CCOC(=O)C1=C(C)C(c2ccccc2)NC(=S)N1 (centres undefined)	-11%
Cc1cc(C)c(C)c(Cn2c(CO)nc3ccccc32)c1C	-6%
O=C(O)CCC(=O)NNC(=O)CCC(=O)Nc1ccccc1	-7%
CCOc1ccc(OCC)c(NC(=O)C2CCN(S(=O)(=O)c3c(C)noc3/C=C/c3ccccc3F)CC2)c1	7%
CCCN(CC(=O)Nc1ccccc1OC)C(=O)CNC(=O)c1ccc(C)s1	-3%
COCCN1C(=O)C(=O)/C(=C(/O)c2ccc(S(=O)(=O)N3CCCCC3)cc2)C1c1ccc(OC)cc1 (centres undefined)	-11%
COc1ccc(Nc2cc(C(=O)NCc3ccccc3)c3ccccc3n2)c(OC)c1	-11%
CC(=O)Nc1cccc(NC(=O)CSc2nnc3ccc(-c4ccccn4)nn23)c1	-17%
O=C(Nc1nc2c(F)cccc2s1)c1ccc(S(=O)(=O)N2CCOCC2)cc1	2%
CNc1nc2c(C)cccn2c(=O)c1C=Nc1ccc(OC)cc1	-3%
COc1ccc(-n2cc(-c3ccccc3)c3c(Nc4ccc(OC)c(OC)c4)ncnc32)cc1	5%
O=C(Cc1c(O)c2ccccc2[nH]c1=O)N(Cc1ccccc1)Cc1ccccc1	-15%
CC(C)c1ccc(/C=C(\NC(=O)c2ccccc2)C(=O)NCCCN2CCOCC2)cc1	4%

Single values from above:
In VDR inhibitor, `CCN(CC(=O)Nc1ccc2c(c1)OCCO2)C(=O)c1ccccc1Br` is entered as -3%
In VDR inhibitor, `CCCN(CC(=O)Nc1ccccc1OC)C(=O)CNC(=O)c1ccc(C)s1` is entered as -3%

The results go on:
SMILES	VDR inhibitor
COc1ccc(CCNC(=O)CSc2nnc(CNC(=O)c3ccccc3F)o2)cc1OC	11%
CCOc1ccc(C2N(c3ccc(Cl)cc3)C(=O)C3CCCN32)cc1OC (centres undefined)	-7%
COc1ccc(CNC(=O)c2ccc3c(c2)N(Cc2ccccc2)C(=O)c2ccccc2S3(=O)=O)cc1	2%
CCOC(=O)C1=C(C)N(CCCC(=O)O)C(=O)NC1c1cccc(OC)c1 (centres undefined)	-2%
Cc1ccc(C(=O)CC2(O)C(=O)N(CN3CCOCC3)c3ccccc32)cc1 (centres undefined)	4%
O=C(CSc1nnc(CNC(=O)c2ccco2)o1)Nc1ccc(OC(F)(F)F)cc1	-2%
C=CCc1cccc2cc(C(=O)NC(C)(C)C)c(=O)oc12	-18%
Cc1ccc(S(=O)(=O)NCCC(c2ccc(F)cc2)c2ccco2)cc1 (centres undefined)	5%
Cc1ccc(CSc2c(C)cnc3c2c(=O)n(C)c(=O)n3C)cc1	7%
O=C(CC(=O)Nc1ccccc1F)Nc1ccc2nc3n(c(=O)c2c1)CCCCC3	9%
CCN(CC(=O)Nc1ccc2c(c1)OCCO2)C(=O)CC1CCCC1	-16%
CC(C)NC(=O)CSc1nc2ccccc2c(=O)n1CCCOC(C)C	15%
Cc1c(C(=O)N2CCN(Cc3ccccc3)CC2)oc2c1C(=O)CC(C)(C)C2	-19%
COc1ccc(CCc2nc(-c3ccc(-n4cccc4)cc3)no2)cc1	-7%
Cc1ccc(NNC(=O)c2snnc2C)cc1Cl	-26%
Cc1cccc(-n2c(C)cc(C(=O)C(=O)Nc3ccccc3F)c2C)c1C	-6%
O=C(O)c1cccc(S(=O)(=O)Nc2ccc(-c3ccccc3)cc2)c1	-4%
Cc1cc(NS(=O)(=O)c2ccc(NC(=O)COc3cc(C)c(Br)cc3C(C)C)cc2)no1	?
COc1ccc(C(=O)Nc2ccccc2C(=O)Nc2ccncc2)cc1	-2%
O=C1C(=O)c2ccccc2C(O)=C1c1ccccc1F	1%
C[C@]12CC[C@@H]3c4ccc(O)cc4CC[C@H]3[C@@H]1CC[C@@H]2OC(=O)CCC1CCCC1	?
COc1ccc(/C=C/C(=O)NC(=S)Nc2ccc(S(=O)(=O)Nc3cc(OC)ncn3)cc2)cc1	7%
Cc1nc(SCCc2ccccc2)[nH]c(=O)c1C	12%
Cc1cccc(NC(c2ccc(O)cc2)c2ccc3ccc(C)nc3c2O)n1 (centres undefined)	45µM*
O=C(COc1cc(Cl)c(Cl)cc1Cl)N1CCN(c2ccccn2)CC1	6%
O=C1CC(N2CCN(Cc3ccc4c(c3)OCO4)CC2)C(=O)N1c1ccccc1 (centres undefined)	-16%
CCOc1cccc(-c2nn3c(-c4ccco4)nnc3s2)c1	-5%
